Bioassay records as filed in PubChem.
Vaccinia mCherry = qHTS for Stage-Specific Inhibitors of Vaccinia Orthopoxvirus: mCherry Reporter Primary qHTS. Potency, µM (series often up to 36.5 µM), without a hit: at the top dose activity change, negative = inhibition, hits mostly inhibitors. AID 720579, 2013. 310,000 tested, 0.63% active. Vaccinia virus mCherry reporter infection, fluorescence; about a quarter of the inactives have no number; active = well fitted inhibition curve with a large enough effect; inconclusive = small, poorly fitted or top-dose-only effect; inactive = no such curve, though single readings can be large or run the other way; tested in A549 cells; further: nearly all actives have a fitted effect of over 35% in size; inactives centre near -10
VACV Venus inh = qHTS for Stage-Specific Inhibitors of Vaccinia Orthopoxvirus: Venus Reporter Primary qHTS | Vaccinia virus Venus reporter expression, fluorescence | Potency, µM (doses to about 36.5 µM), without a hit: top-dose activity change, negative = inhibition, actives largely listed as inhibitors | 330,000 tested, 0.46% active | AID 720580, 2013; active means well fitted inhibition curve with a large enough effect; inconclusive means small, poorly fitted or top-dose-only effect; inactive means no such curve, though single readings can be large or run the other way; tested in A549 cells; further: nearly all actives have a fitted effect of over 30% in size; inactives centre near -10
Active calls of the source: *; i = inactive; ? = inconclusive; . = no result given; [ ] = another dose, or the depositor's remark. On the % scale 0 is the no-effect control and ±100 the full control effect; potency means the concentration at half of the fitted maximal effect.

SMILES	Vaccinia mCherry	VACV Venus inh
C/C(=N\NC(=O)c1ccc(-c2ccccc2)cc1)c1ccco1	i	-6%
CCCCCC(=O)Nc1nc(C)c(-c2csc(Nc3cc(Cl)ccc3C)n2)s1	?	-23%
CCOC(=O)CC(NS(=O)(=O)c1ccc2[nH]cc(C(=O)O)c(=O)c2c1)c1ccc(OCC)c(OC)c1 (stereo not given)	-12%	-4%
O=c1[nH][nH]c(-c2ccccc2)c1C=Nc1cccc(Cl)c1	-21%	-18%
N#C/C(=C(/O)COC(=O)c1ccc2c(c1)OCCO2)c1nc2ccccc2[nH]1	-18%	-6%
Fc1ccc(-n2cc(CNCCc3cccnc3)c(-c3ccccc3Cl)n2)cc1	0%	-16%
CCOc1ccccc1CNCc1ccc(C(=O)O)cc1	-14%	3%
CC(C(=O)c1ccccc1)[n+]1ccc(Cl)c2ccc(Cl)cc21 (stereo not given)	30%[activator]	-6%
Cc1ccc(CNS(=O)(=O)c2c(C(=O)N3CCCCC3)c(C)n(C)c2C)o1	i	-9%
CC1Cc2[nH][nH]c(=O)c2C(C2CC2)O1 (stereo not given)	25%	-9%
C#CCSc1nsc(SCC#C)c1C#N	-2%	0%
CCn1ncc([N+](=O)[O-])c1C(=O)Nc1cc(C)on1	-10%	-9%
CC(C)(C)NC(=O)c1cc(NC(=O)c2ccco2)cc(NC(=O)c2ccco2)c1	-12%	-7%
COc1ccc(S(=O)(=O)N2CCn3c2nc2ccccc23)cc1	.	-5%
Cc1noc(C)c1C(=O)N(C)CC(=O)Nc1ccc(F)c(F)c1F	i	-16%
COc1ccc(CCNC(=O)CCc2nnc(Cc3ccc4c(c3)OCO4)o2)cc1	-10%	-6%
O=C(Nc1ccccc1)c1cc(C2CCCN(C(=O)CCc3ccccc3)C2)on1 (stereo not given)	-14%	-11%
CCN1C(=O)C(CC(=O)Nc2ccc(OC)cc2)N(Cc2ccc(OC)c(OC)c2)C1=S (stereo not given)	-4%	-20%
N#Cc1cc2c(=O)n3ccccc3nc2n(-c2nnc(SCc3ccccc3Cl)s2)c1=O	-9%	-13%
COc1ccccc1NS(=O)(=O)c1cc(C(=O)NCC(c2cccs2)N2CCOCC2)ccc1C (stereo not given)	-1%	-14%
Cc1ccc(S(=O)(=O)N2CCCCC2)cc1C(=O)Nc1ccccn1	-6%	-11%
CCCCN(CC)C(=O)c1nn(-c2ccc(OC)cc2)c(=O)c2c1c1ccccc1n2C	-6%	-10%
NC(=O)C1=C[C@@H](c2ccccc2)C[C@@H](OCc2ccc(CO)cc2)O1	?	-9%
O=C(COC(=O)[C@@H]1CCCN1C(=O)c1cccs1)Nc1cccc([N+](=O)[O-])c1	-5%	-8%
O=C(NC1CC(=O)c2sccc21)c1cccc(C(F)(F)F)c1 (stereo not given)	i	-14%
CC(=O)c1ccc(N(C(=O)Cn2nnc3ccccc32)C(C(=O)NC2CCCCC2)c2cn(C)nc2C)cc1 (stereo not given)	.	-7%
O=C(N/N=C/c1cccs1)/C(=C/c1ccccc1)NC(=O)c1ccccc1	-8%	-19%
O=C1CCC(C(=O)NCc2ccccc2)N1 (stereo not given)	i	-10%
Cc1ccccc1C(=O)NCC(=O)OCCCOC(=O)CNC(=O)c1ccccc1C	-18%	-8%
CCCOc1ccc(CNC(=S)Nc2ccccc2)cc1Cl	i	-21%

13 structures out of the list, ordered by length of the SMILES, rising:
SMILES	Vaccinia mCherry	VACV Venus inh
O=C1CCC(C(=O)NCc2ccccc2)N1 (stereo not given)	i	-10%
CCCOc1ccc(CNC(=S)Nc2ccccc2)cc1Cl	i	-21%
COc1ccc(S(=O)(=O)N2CCn3c2nc2ccccc23)cc1	.	-5%
O=C(NC1CC(=O)c2sccc21)c1cccc(C(F)(F)F)c1 (stereo not given)	i	-14%
Cc1noc(C)c1C(=O)N(C)CC(=O)Nc1ccc(F)c(F)c1F	i	-16%
Cc1ccccc1C(=O)NCC(=O)OCCCOC(=O)CNC(=O)c1ccccc1C	-18%	-8%
O=C(Nc1ccccc1)c1cc(C2CCCN(C(=O)CCc3ccccc3)C2)on1 (stereo not given)	-14%	-11%
NC(=O)C1=C[C@@H](c2ccccc2)C[C@@H](OCc2ccc(CO)cc2)O1	?	-9%
CCCCN(CC)C(=O)c1nn(-c2ccc(OC)cc2)c(=O)c2c1c1ccccc1n2C	-6%	-10%
CCN1C(=O)C(CC(=O)Nc2ccc(OC)cc2)N(Cc2ccc(OC)c(OC)c2)C1=S (stereo not given)	-4%	-20%
COc1ccccc1NS(=O)(=O)c1cc(C(=O)NCC(c2cccs2)N2CCOCC2)ccc1C (stereo not given)	-1%	-14%
O=C(COC(=O)[C@@H]1CCCN1C(=O)c1cccs1)Nc1cccc([N+](=O)[O-])c1	-5%	-8%
CC(=O)c1ccc(N(C(=O)Cn2nnc3ccccc32)C(C(=O)NC2CCCCC2)c2cn(C)nc2C)cc1 (stereo not given)	.	-7%

(next part)
SMILES	Vaccinia mCherry	VACV Venus inh
O=C(COC(=O)/C=C/c1cccc(F)c1)NC1CCCC1	-10%	-1%
Cc1cc(O)c(C(c2ccc(Cl)cc2)N2CCN(c3ccccc3)CC2)c(=O)n1Cc1ccco1 (stereo not given)	-11%	-2%
CC(=O)NC(NC(=S)Nc1cccc(Br)c1)C(Cl)(Cl)Cl (stereo not given)	-23%	-22%
CCOC(=O)C1CCN(C(=O)Cn2ncc3c4ccccc4n(Cc4ccccc4)c3c2=O)CC1	-14%	-16%
CC(=O)c1cccc(NC(=O)N2CCOCC2)c1	-13%	-7%
CN(C)Cc1ccccc1-c1cncnc1Nc1ccc(F)cc1	-14%	-4%
CC1(Oc2cccc(Cl)c2)CCN(Cc2ccc(OC(F)(F)F)cc2)C1 (stereo not given)	0%	6%
COc1cccc(CNC(=O)CCc2c(C)nc3c4c(C)cc(C)nc4nn3c2C)c1	i	-16%
O=c1nc(N2CCOCC2)nc2n1CCO2	.	-11%
COc1ccccc1N(CC(=O)NCc1ccccc1C)S(=O)(=O)c1ccc(C)cc1	-18%	-11%
CCc1nc2ccc(C(=O)Nc3cc(-c4ccccc4)ccc3OC)cn2c1N(C)C(=O)c1cccc(OC)c1	7%	-19%
O=C(CCN1C(=O)C2CCCCC2C1=O)Nc1nc2ccc(F)cc2s1 (stereo not given)	-2%	-6%
Cc1ccc(CNC(=O)CCCn2nc(C)n3ccnc3c2=O)cc1	45%[activator]	3%
O=C(NC(=S)NC(c1ccccc1)c1ccncc1)c1ccccc1 (stereo not given)	-2%	-15%
O=C(Nc1ccccc1Oc1ccccc1)c1cnccn1	-21%	?
Cc1ccc(NC(=S)NC(=O)c2cccs2)cc1F	-3%	-17%
O=C(NCc1ccccn1)c1[nH]c(C(F)(F)F)nc1-c1ccccc1	i	6%
O=C(NCCc1nc2ccccc2n1CCCOc1ccccc1Cl)C1CCCCC1	-26%	?
Cc1ccc2c(CC(=O)Nc3cccc(S(=O)(=O)N4CCOCC4)c3)coc2c1	-9%	-21%
Cc1cc(C(O)c2ncc(-c3cccc4ccccc34)[nH]2)ccc1F (stereo not given)	?	?
COc1cc(C(c2nnnn2C2CCCC2)N2CCN(C)CC2)cc(OC)c1OC (stereo not given)	.	-24%
N#C/C(=C/c1ccc(N2CCOCC2)o1)C(=O)N1CCOCC1	i	-6%
CCOC(=O)C1(CC2CCCCO2)CCN(C2CCSCC2)CC1 (stereo not given)	-22%	5%
CCCCNS(=O)(=O)C1CCS(=O)(=O)C1 (stereo not given)	3%[1.46 µM]	-8%
Cn1nnnc1SCC(=O)Nc1ccccc1C(=O)NC1CC1	-1%	-2%
CC(C)CC(=O)Nc1cccc(-c2csc(-c3ccccc3)n2)c1	.	?
COc1cccc(NC(=O)CCc2nnc3ccc(N4CCC(C)CC4)nn23)c1	-9%	-9%
O=C(COC(=O)c1cccc(S(=O)(=O)NCc2ccccc2)c1)c1ccc2c(c1)OCCO2	?	-27%
C=CCn1c(-c2c(C)nc3cc(C)ccn23)n[nH]c1=S	-6%	1%
CC1OC(C2CCCCC2)Cc2[nH]c(=S)[nH]c(=O)c21 (stereo not given)	38%[activator]	3%
O=C(Nc1ccc(Cl)c(S(=O)(=O)N2CCCCC2)c1)C1=COCCO1	-21%	-22%
CC(C)Oc1ccc(Br)cc1C(=O)N/N=C/c1c[nH]c2ccccc12	?	-29%
COc1ccc(/C=C/C(=O)Nc2sc3c(c2C(N)=O)CCC(C)C3)cc1OC (stereo not given)	-6%	-9%
CC(=O)Nc1ccc(S(=O)(=O)N2CCN(c3ccc(C)c(C)c3)CC2)cc1	-14%	-16%
CCOC(=O)C1CCN(C(=O)c2ccccc2NS(=O)(=O)c2ccccc2)CC1	-11%	-7%
O=C(COc1ccccc1[N+](=O)[O-])NNC(=O)Nc1cccc2ccccc12	-13%	-17%
Cc1cc(=O)c2c(C)ccc(C)c2[nH]1	3%	-13%
NS(=O)(=O)c1ccc(NS(=O)(=O)c2ccc3c(c2)OCCO3)cc1	i	3%
COc1cccc(CC(=O)N2CCN(S(=O)(=O)c3ccc(Br)cc3)CC2)c1	-26%	-22%
COC1(OC)N=C(N)C2(C#N)C(c3ccc(F)cc3)C12C#N (stereo not given)	i	-17%
O=c1cc(CSc2ccc(S(=O)(=O)N3CCCCC3)cn2)nc2sccn12	-6%	7%
COc1ccccc1NC(=O)Cn1c(=O)n(-c2cccc(C)c2)c(=O)c2c1c1cc(C)ccc1n2C	0%	-13%
Cc1cc(SCC(=O)c2cccs2)n2nc(C)c(-c3ccc(Cl)cc3)c2n1	0%	-20%
CN1Cc2c(ccc3c2OCO3)C2C(O)Cc3cc4c(cc3C21)OCO4 (stereo not given)	-13%	-10%
Cc1cn2c(=O)cc(COc3ccc(NC(=O)COc4ccccc4)cc3)nc2s1	-1%	-7%
CC1(C)OC(=O)C(=CNC(CO)C(=O)O)C(=O)O1 (stereo not given)	-4%	-11%
C/C(=N\N1C(C)CCCC1C)c1ccccc1O (stereo not given)	i	-2%
O=C(Nc1cccc(F)c1)c1ccco1	-10%	2%
CC1CN(C(=O)N2CCC(C(=O)NCc3ccccc3F)CC2)c2cc(Cl)ccc2O1 (stereo not given)	-12%	-12%
Cc1c(Cl)cccc1NC(=S)N1CCCN(Cc2ccccc2F)C1	?	-22%
O=C(Nc1nnc(Cc2ccccc2)s1)c1ccco1	-17%	-6%
COc1ccccc1CN1C[C@@H]2C[C@@H](c3[nH]c4ccc(C)cc4c3C)N3CCC[C@@]23C1=O	-24%	-15%
O=C(CNc1cc(S(=O)(=O)N2CCOCC2)ccc1NCC1CCCO1)Nc1ccc(C(F)(F)F)cc1 (stereo not given)	?	-16%
CCC(CC)c1nnc(NS(=O)(=O)Cc2ccccc2)s1	.	-3%
O=C(NC1CCCC1)c1ccc(CSc2nc3ccncc3n2Cc2ccccc2F)cc1	-29%	-19%
COc1ccc(NC(=O)Nc2cccc3c2O[C@H](CN(C)S(C)(=O)=O)[C@@H](C)CN([C@H](C)CO)C3=O)cc1	-11%	-8%
COc1ccc(S(=O)(=O)NC(=O)C2(C)CCN2C(=O)CCC2CCCC2)cc1OC (stereo not given)	-7%	5%
COc1ccc(N2C(=O)CC(N3CCN(Cc4ccc5c(c4)OCO5)CC3)C2=O)cc1 (stereo not given)	-14%	2%
CCOc1ccc2nc(COC(=O)c3cccs3)c(C(C)=O)[n+]([O-])c2c1	i	-12%
CC(C)(C)c1ccc(-n2ncc3c2CCCC3NC(=O)CCC2=NNC(=O)CC2)cc1 (stereo not given)	i	-28%

Additional records:
SMILES	Vaccinia mCherry	VACV Venus inh
FC(F)(F)c1ccccc1NC(=S)N1CCCC1	-2%	?
O=C(Nc1ccc(F)cc1F)c1ccc2c(=O)n3c(nc2c1)CCC3	i	-4%
CCC(C)NC(=O)c1nn(-c2ccc(C)cc2)c(=O)n(C)c1=O (stereo not given)	-16%	-17%
CCCCn1nnnc1C(c1ccccc1)N1CCN(c2ccccn2)CC1 (stereo not given)	i	-6%
CCCNC(=O)C1(C)CCCN(C(=O)c2ccc(C)c(F)c2)C1 (stereo not given)	-3%	0%
Cc1nn(-c2cccc(Cl)c2)c2nc(-c3cccnc3)cc(C(F)(F)F)c12	-5%	-3%
O=C(OCC(=O)N1CCC(Cc2ccccc2)CC1)c1ccc(O)cc1	i	-21%
CCOc1ccc(OCC)c(NC(=O)c2cc(S(=O)(=O)N3CCc4ccccc43)cn2C)c1	-11%	-11%
CC(=O)N1c2c(cc(Br)cc2S(=O)(=O)N2CCN(c3cc(C)ccc3C)CC2)CC1C (stereo not given)	-3%	0%
Cc1ccc(-n2c(C)cc(/C=C(\C#N)C(=O)Nc3ccc(C)c(C)c3)c2C)cc1	-5%	-2%
Cc1nn(C)c2c1c(-c1ccccc1)cc(=O)n2Cc1ccc(F)cc1	-11%	-1%
CC(=O)NC1N=C(C)N(c2ccccc2)C1=O (stereo not given)	.	-18%
COc1ccc(C(=O)c2c(C)oc3cc([N+](=O)[O-])c(O)c([N+](=O)[O-])c23)cc1	23%	-10%
COc1cccc(=O)c2c(C)n(CC(=O)c3ccccc3)c(C)c12	i	0%
COc1cccc(NC(=O)CN(C)C(=O)CCNC(=O)c2ccccc2Cl)c1	-9%	-4%
Cc1nc2cccnc2n1C1CCN(S(=O)(=O)c2ccc(C(C)C)cc2)CC1	-17%	-13%
CCC(Oc1ccccc1)C(=O)Nc1cc(-c2ccccc2OC)nn1-c1ccccc1 (stereo not given)	-16%	2%
O=S(=O)(Nc1ncccn1)c1ccc(NC(=S)NCCc2ccccc2)cc1	-10%	10%

Grouped by structure, the compounds so far containing a tert-butyl group
SMILES	Vaccinia mCherry	VACV Venus inh
CC(C)(C)NC(=O)c1cc(NC(=O)c2ccco2)cc(NC(=O)c2ccco2)c1	-12%	-7%
CC(C)(C)c1ccc(-n2ncc3c2CCCC3NC(=O)CCC2=NNC(=O)CC2)cc1 (stereo not given)	i	-28%
